# Six1-Eya2 blk: inhibitors of human Six1/Eya2 interaction. Q15475+O00167. AlphaScreen GST-Six1/His-Eya2 binding, biochemical; active compounds read low; control for the full effect not named in the record. activity change, % (concentration not given with the values). 360,000 tested, 0.56% active. AID 651725; in the data active = activity change below about -65%; inconclusive = about -30% to -65%; inactive = above about -30%; note: % is set by controls: 0 for no effect and ±100 for the full control effect
# Target sequence (O00167 whole entry, looked up): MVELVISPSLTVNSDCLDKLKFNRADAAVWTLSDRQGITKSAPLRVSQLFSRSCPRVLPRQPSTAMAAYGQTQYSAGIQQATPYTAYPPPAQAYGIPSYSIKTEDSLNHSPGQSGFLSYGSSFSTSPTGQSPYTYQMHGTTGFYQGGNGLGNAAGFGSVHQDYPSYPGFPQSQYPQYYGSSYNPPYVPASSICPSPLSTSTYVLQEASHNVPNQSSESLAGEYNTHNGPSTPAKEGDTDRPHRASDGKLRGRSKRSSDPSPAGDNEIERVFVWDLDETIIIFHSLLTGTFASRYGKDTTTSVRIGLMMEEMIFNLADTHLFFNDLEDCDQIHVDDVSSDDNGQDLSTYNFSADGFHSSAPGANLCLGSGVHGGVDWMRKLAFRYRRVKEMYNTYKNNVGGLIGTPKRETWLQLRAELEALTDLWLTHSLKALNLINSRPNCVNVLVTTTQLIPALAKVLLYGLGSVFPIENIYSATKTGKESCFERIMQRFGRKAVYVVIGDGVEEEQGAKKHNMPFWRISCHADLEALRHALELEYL
# Target sequence (Q15475 whole entry, looked up): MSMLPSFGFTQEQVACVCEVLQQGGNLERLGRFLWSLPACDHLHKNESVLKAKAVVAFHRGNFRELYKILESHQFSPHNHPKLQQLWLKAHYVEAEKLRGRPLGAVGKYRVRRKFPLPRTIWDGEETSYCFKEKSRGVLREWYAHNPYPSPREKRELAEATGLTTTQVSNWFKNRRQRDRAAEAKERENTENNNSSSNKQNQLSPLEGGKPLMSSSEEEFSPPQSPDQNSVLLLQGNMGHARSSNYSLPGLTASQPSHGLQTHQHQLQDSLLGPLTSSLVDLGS
#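 Six1/Eya2 binding was read as AlphaScreen signal after compounds were pinned into GST-Six1 plus His-tagged Eya2 (5X stock 250/500 nM) in pH 8.0 Tris/NaCl/TCEP buffer, beads added, then incubated 1 h, 37 C, dark.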
# TRPV1 PAM: potentiators of human vanilloid receptor 1 (TRPV1); Q8NER1; TRPV1-expressing cells, Fluo-8 calcium influx, capsaicin EC20 potentiation; host cell line not named in the record; control for the full effect not named in the record; potentiation, % at 8.33 µM; 320,000 tested, 0.02% active; active means potentiation above 80%; inconclusive means 30% to 80%; inactive means below 30%; note: 0% is about no effect
#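 Fluo-8 calcium influx in TRPV1-expressing cells, kinetic read (ex 480/em 520 nm). Compound added and read 3 min for agonist activity, followed by capsaicin at EC20 final and 2 min further read for enhancement.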
# Sfp PPTase inh: Sfp phosphopantetheinyl transferase inhibition; Q9F4F7; Biochemical Sfp PPTase activity, qHTS; Potency, µM, inactives show max response, negative = inhibition, actives largely listed as inhibitors; 310,000 tested, 3.5% active; AID 1490; active = well fitted inhibition curve with a large enough effect; inconclusive = small, poorly fitted or top-dose-only effect, or another doubt; inactive = no such curve, though single readings can be large or run the other way;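 note: the enzyme is Sfp with the accession as filed and its product quenches rhodamine fluorescence; potency is the fitted concentration of half-maximal effect; 0% = enzyme reaction without inhibitor and -100% = no enzyme wells; top concentration of the series not given in the record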
#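 Sfp 15 nM + cpd, 15 min RT; start w/ rhodamine-CoA 5 uM, BHQ-2-YbbR 12.5 uM (final); 50 mM Hepes pH 7.6, 10 mM MgCl2, 0.01% NP-40, 0.01% BSA; read 525/598 nm at 0 and 30 min.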
# D2 potentiator: positive allosteric modulators of human D2 dopamine receptor; potentiation, % (no concentration beside the values); P14416; DiscoveRx D2 beta-arrestin cells, luminescence, 90 min; 100% = 57 uM dopamine signal; 360,000 tested, 0.23% active; AID 624464; active = potentiation of 50% or more; inconclusive = 30% to 50%; inactive = 30% or less;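 note: compound concentration not given in the record; tested on top of an EC20 dose of dopamine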
#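 PathHunter D2 cells, attached overnight at 37 deg C, received compound in DMSO plus dopamine at EC20 (50 nM final) for 90 min at 37 deg C. Beta-arrestin recruitment was read as luminescence after 1 h with detection reagent at ambient temperature.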
# D2 agonist: activates the human D2 dopamine receptor; P14416; DiscoveRx PathHunter D2 beta-arrestin, luminescence, 90 min; 100% = 57 uM dopamine signal; activation, % (concentration not given with the values); 360,000 tested, 0.084% active; in the data active = activation above about 40%; inconclusive = about 15% to 40%; inactive = below about 15%; note: compound concentration not given in the record; the text of the record calls up to 30% inactive
#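 Agonist mode: compounds alone added to overnight-plated D2 PathHunter cells for 90 min at 37 C, with 57 uM final dopamine (EC100) defining full response. Beta-arrestin recruitment detected by chemiluminescent reagent, read after 1 h at ambient temperature.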
# PINK1 expr mod: PINK1 expression modulation. PINK1 immunofluorescence, high-content cytometry, 24 h. Potency, µM (doses to about 76.6 µM), for inactives: top-dose activation (PINK1 increase), actives largely listed as activators. 410,000 tested, 0.2% active; active = well fitted activation curve with a large enough effect; inconclusive = small, poorly fitted or top-dose-only effect; inactive = flat fitted curve, though single readings scatter; cell line not stated here;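 note: potency is the fitted concentration of half-maximal effect; % of control where 0% means no effect; nearly all actives have a fitted effect of over 65% in size; a mitochondrial uncoupler was the plate control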
#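 Fluorescence from anti-PINK1 antibody, together with nuclear and cell stains, was scanned on a laser-scanning cytometer. Before staining, stable-line cells were incubated 24 hours with compounds at 5 concentrations; primary antibody 12 h at 10 degrees C.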
# CtBP-E1A inh: inhibitors of CtBP/E1A interaction. 340,000 tested, 0.49% active. activity change, % (test concentration not listed). AlphaScreen GST-E1A/His-CtBP binding, 1536-well; active compounds read low; control for the full effect not named in the record; in the data active means activity change below about -65%; inconclusive means about -30% to -65%; inactive means above about -30%; note: % is set by controls: 0 for no effect and ±100 for the full control effect
#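 AlphaScreen with 125 nM GST-E1A and 125 nM His-CtBP (5X stocks) in Tris pH 8.0, 300 mM NaCl, BSA, Tween 20, TCEP. Compounds preincubated 2 h at 37 deg C, then glutathione donor/nickel acceptor beads added for 1 h at 37 deg C in dark.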
# An asterisk follows results filed as active; ? = inconclusive; / = not tested or not shown; & = joins results of further samples; [ ] = another dose, or the depositor's remark.
SMILES,Six1-Eya2 blk,TRPV1 PAM,Sfp PPTase inh,D2 potentiator,D2 agonist,PINK1 expr mod,CtBP-E1A inh
O=C(Nc1ccc(O)cc1)c1ccc(NC(=O)C2CCCO2)cc1 (stereo not given),12.0,-3.0,14.3%,-9.8,1.7,1.5%,0.0
CC(C)NC(=S)N/N=C/c1ccccc1[N+](=O)[O-],10.7,-0.2,4.0%,4.3,2.0,1.0%,-1.2
CCCc1nc2sc3c(c2c(=O)[nH]1)CCCC3,-15.6,3.8,-2.6%,-14.2,-2.9,1.3%,2.1
CCN(CC)c1ccc(CNc2nc3ccccc3n2C(C)C)cc1,-20.0,?,8.2%,-33.7,1.2,22.4µM*,-14.4
C=C(C)Cn1c(SCC)nc2ccccc2c1=O,13.8,?,4.6%,9.6,-1.6,-0.6%&1.6%,5.0
COc1ccccc1CNC(=O)C1CC2Cn3c(nc4cc(C)c(C)cc43)C2N1C (stereo not given),3.2,-0.7,/,-71.6,-1.5,0.5%,0.0
COC(=O)c1c(NC(=O)COC(=O)CCc2ccc(S(=O)(=O)N3CCOCC3)cc2)sc2c1CCC2,13.1,25.7,5.4%,-0.8,-2.9,1.0%,0.0
Cc1cc(C)n2nc(SC3CCCCN(C(=O)c4ccc(F)cc4)C3=O)nc2n1 (stereo not given),8.2,0.6,12.2%,-11.5,-5.1,-0.1%,21.6
COc1cc(OC)c(S(=O)(=O)N2CCOCC2)cc1S(=O)(=O)N1CCOCC1,-1.8,-3.6,1.1%,-7.5,-3.8,0.1%,2.9
CCCN1C(=O)/C(=C/c2nc3ccccc3c(=O)[nH]2)c2cc(C)ccc21,3.7,0.1,8.0%,-12.9,-1.9,8.8%,3.4
CCOc1ccc(NS(=O)(=O)c2ccc(C(=O)N(C)CCc3ccc(OC)c(OC)c3)cc2)cc1,-2.9,5.5,1.4%,-7.9,-2.9,-0.6%,7.7
CC(=O)Nc1ccc(SC(C)C(=O)NC2CCCC2)cc1 (stereo not given),-1.1,7.8,-0.3%,-3.0,-5.0,1.0%,2.0
CCOc1ccc(-c2cccc(NC(=O)COc3ccc(Cl)cc3)c2)nn1,0.2,22.8,2.1%,-9.5,3.0,6.4%,0.7
CCOC(=O)c1cnn(-c2cc(Oc3cccc(C)c3)ncn2)c1N,-1.5,-5.5,12.4%,-13.2,-2.2,18.0%,5.1
Cc1cccc(NC(=O)NCC(c2ccco2)N2CCCCC2)c1 (stereo not given),-2.6,0.4,18.3%,-26.9,0.9,-1.4%,-1.6
Cc1nn(Cc2ccccc2)c(C)c1NC(=O)c1cc(-c2ccc3c(c2)OCO3)on1,2.1,0.1,1.8%,-5.8,1.7,?,4.3
Cc1cccc(C)c1OCC(=O)Nn1c(C)nc2ccccc2c1=O,?,-27.3,-12.6%,-10.9,-4.6,5.1%,-16.6
COc1ccc2[nH]c3c(c2c1)CCN1C(=O)C(CC(=O)NCCN2CCOCC2)C[C@H](C(=O)N2CCOCC2)[C@@]31CCC1CCCC1 (stereo not given in full),7.9,/,/,/,0.1,0.1%,0.7
CSc1ccc(CN2CCC(C)(Oc3cccc(C#N)c3)C2)cc1 (stereo not given),-6.3,/,/,-18.7,5.0,2.7%,1.2
COC(=O)c1cc(CNC(=O)C2CC(=O)N(c3ccc4c(c3)OCCO4)C2)ccc1OC (stereo not given),-0.1,/,/,-1.9,-2.8,-0.5%,-2.8
CC(=O)Nc1ccc(Oc2cnc3ccccc3n2)cc1,5.0,-3.8,14.1%,-4.0,3.4,-1.9%,7.8
Cc1oncc1C(=O)N1CCCC(CO)(Cc2ccc(F)cc2F)C1 (stereo not given),-0.2,13.5,11.8%,-2.2,-0.6,-1.4%,2.7
N#CC1=C(N)Oc2n[nH]c(-c3cccnc3)c2C1c1cc(F)ccc1F (stereo not given),5.7,13.4,-13.8%,10.3,-1.6,3.8%,16.6
CCOC(=O)C1CCCN(C(=O)CSc2ccc(Br)cc2)C1 (stereo not given),11.4,-13.1,-0.9%,-5.7,-4.0,1.3%,6.1
CCOc1ccc(CCNC(=O)CCn2nc(C)c3c(C)n(-c4ccccc4)nc3c2=O)cc1,4.3,15.7,6.3%,-0.1,7.2,1.3%,4.2

# The list continues.
SMILES,Six1-Eya2 blk,TRPV1 PAM,Sfp PPTase inh,D2 potentiator,D2 agonist,PINK1 expr mod,CtBP-E1A inh
Cc1ccc(C(=O)Cn2cc([N+](=O)[O-])nc2C)cc1,-3.3,-24.3,-2.6%,-4.5,-3.0,-0.8%,5.3
CCNc1nc(NCC)nc(SCC(C)=O)n1,0.0,1.4,-4.6%,-6.1,1.2,-0.4%,2.3
O=C(Nc1ccc(N2CCN(C(=O)c3ccccc3)CC2)cc1)c1cccs1,-0.1,2.0,3.4%,-1.2,-4.8,0.3%,-12.6
Cc1ccc(C(=O)Nc2ccc3c(c2)OCCO3)c(Cl)c1,12.4,-3.0,-2.1%,-40.4,1.7,-0.4%,/
O=C(COC(=O)c1cc([N+](=O)[O-])ccc1N1CCOCC1)Nc1cccc(F)c1,2.3,-8.7,12.9%,-29.9,3.2,-1.4%,18.4
CC(C)CCNC(=O)C1CCCN(S(=O)(=O)c2ccc(F)cc2)C1 (stereo not given),8.2,-12.7,7.9%,-13.2,-2.5,1.4%,6.5
Cc1cc(S(=O)(=O)Nc2ccc3ccccc3c2)c(C)s1,-2.4,-3.8,2.0%,-13.1,-2.3,16.5%[38.3 µM],3.4
O=C(C1=C[C@@H](c2coc3ccccc3c2=O)C[C@@H](OCc2ccc(CO)cc2)O1)N1CCN(Cc2ccc3c(c2)OCO3)CC1,-0.1,-7.3,13.2%,-10.8,-1.8,-0.7%,2.7
COc1ccc(CNCc2cc(Cl)ccc2O)cc1,-14.3,5.9,/,-20.4,-1.6,8.9%,-20.5
CCc1ccc(NC(=O)C2=CC(c3ccc(OC)c(OC)c3)=NS(=O)(=O)N2C)cc1,-14.9,9.7,9.1%,-4.9,0.7,1.6%,-3.2
COc1cc(C(=O)NCC(c2cccnc2)N2CCN(c3ccccc3)CC2)cc(OC)c1OC (stereo not given),4.2,7.6,19.2%,-6.6,0.8,0.2%,4.4
CC1=N/C(=C\c2ccc(OC(C)C)cc2)C(=O)N1c1ccc(C(=O)O)cc1,9.4,-2.4,6.1%,-6.1,-3.6,1.8%,1.1
COc1cc(C(=O)N2CCN(c3ccccc3)CC2)c2ccccc2n1,0.4,/,/,-5.0,-3.2,4.7%,-5.8
CCN(CC(=O)Nc1ccc(NC(C)=O)cc1)C(=O)CCCOc1ccc(C(C)(C)C)cc1,-6.7,-21.6,/,21.5,1.1,6.0%,9.9
O=c1[nH]c(/C(=N\O)c2ccccc2)no1,-9.5,0.6,-4.5%,?,3.7,-1.0%,-6.9
Nc1ccc(CCc2ccc(N)cc2)cc1,5.1,/,/,-6.0,1.5,-0.1%,-0.7
O=C(Nc1cccc(Oc2ccccc2)c1)C1Cc2c(-c3ccco3)ccnc2O1 (stereo not given),-7.9,/,/,-4.1,-4.3,1.1%,-7.1
O=C(COc1ccc(S(=O)(=O)NC2CCCCC2)cc1)NC1CC1,-3.3,2.0,9.6%,2.1,0.5,-0.6%,-15.3
O=C(NCCNc1ccc([N+](=O)[O-])cc1)c1cc(F)c(F)cc1Cl,-1.3,/,/,-10.1,-4.4,1.5%,6.6
COc1ccccc1N1CCN(C2CCCN(C(=O)c3oc(C)cc3C)C2)CC1 (stereo not given),6.4,4.0,-3.7%,-41.7,-5.2,-0.8%,-20.8
CCc1c(O)nc(SC2CC(=O)N(c3ccc(F)c(Cl)c3)C2=O)[nH]c1=O (stereo not given),5.3,-3.9,5.5%,-5.5,2.5,0.3%,13.3
COc1ccc2[nH]cc(C(=O)NCCc3ccccc3)c(=O)c2c1,-14.3,18.5,6.7%,10.5,6.0,4.2%,-22.2
COc1ccc(-c2nn(C)c(=O)c3ccccc23)cc1NC(=O)Cn1nc(-c2ccccc2)c2ccccc2c1=O,-6.8,13.2,-13.4%,-8.1,-1.2,1.1%,-5.4

# Nothing new here: twelve of the compounds above.
SMILES,Six1-Eya2 blk,TRPV1 PAM,Sfp PPTase inh,D2 potentiator,D2 agonist,PINK1 expr mod,CtBP-E1A inh
O=C(COC(=O)c1cc([N+](=O)[O-])ccc1N1CCOCC1)Nc1cccc(F)c1,2.3,-8.7,12.9%,-29.9,3.2,-1.4%,18.4
CC(C)CCNC(=O)C1CCCN(S(=O)(=O)c2ccc(F)cc2)C1 (stereo not given),8.2,-12.7,7.9%,-13.2,-2.5,1.4%,6.5
Cc1cc(S(=O)(=O)Nc2ccc3ccccc3c2)c(C)s1,-2.4,-3.8,2.0%,-13.1,-2.3,16.5%[38.3 µM],3.4
O=C(C1=C[C@@H](c2coc3ccccc3c2=O)C[C@@H](OCc2ccc(CO)cc2)O1)N1CCN(Cc2ccc3c(c2)OCO3)CC1,-0.1,-7.3,13.2%,-10.8,-1.8,-0.7%,2.7
COc1ccc(CNCc2cc(Cl)ccc2O)cc1,-14.3,5.9,/,-20.4,-1.6,8.9%,-20.5
CCc1ccc(NC(=O)C2=CC(c3ccc(OC)c(OC)c3)=NS(=O)(=O)N2C)cc1,-14.9,9.7,9.1%,-4.9,0.7,1.6%,-3.2
COc1cc(C(=O)NCC(c2cccnc2)N2CCN(c3ccccc3)CC2)cc(OC)c1OC (stereo not given),4.2,7.6,19.2%,-6.6,0.8,0.2%,4.4
CC1=N/C(=C\c2ccc(OC(C)C)cc2)C(=O)N1c1ccc(C(=O)O)cc1,9.4,-2.4,6.1%,-6.1,-3.6,1.8%,1.1
COc1cc(C(=O)N2CCN(c3ccccc3)CC2)c2ccccc2n1,0.4,/,/,-5.0,-3.2,4.7%,-5.8
CCN(CC(=O)Nc1ccc(NC(C)=O)cc1)C(=O)CCCOc1ccc(C(C)(C)C)cc1,-6.7,-21.6,/,21.5,1.1,6.0%,9.9
O=c1[nH]c(/C(=N\O)c2ccccc2)no1,-9.5,0.6,-4.5%,?,3.7,-1.0%,-6.9
Nc1ccc(CCc2ccc(N)cc2)cc1,5.1,/,/,-6.0,1.5,-0.1%,-0.7
